# From PubChem BioAssay
# Bst PK mod: Pyruvate Kinase | partly purified Bacillus stearothermophilus pyruvate kinase, luminescence ATP production; ribose 5-phosphate activator present at AC10 | Potency, µM | hit rate 1.2% among 51,000 | AID 361, 2006; in the data active means potency below about 11 µM; inconclusive means mostly about 12 µM to 25 µM; inactive means weaker than that;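 the screen sought inhibitors and activators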;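 note: potency is the fitted concentration of half-maximal effect; scaled between full activation by ribose 5 phosphate and full inhibition by luteolin; about four in five hits inhibit and the cells do not say which; series up to 57 µM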
# TsaE inh: qHTS Assay for Inhibitors of YjeE; hit rate 0.05% among 71,000; AID 605, 2007; Potency, µM; purified YjeE, fluorescence polarisation of a bound ADP probe; tRNA threonylcarbamoyladenosine biosynthesis protein TsaE (Escherichia coli (strain …; active = well fitted falling curve; inconclusive = weaker or top-dose-only fall, or a rising curve; inactive = flat or poorly fitted curve;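 note: top concentration of the series not given in the record; excess ADP was the control for the full effect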
#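 Fluorescence polarization of a BODIPY Texas Red–ADP probe (2 uM) bound to purified YjeE (10 uM) was read after 15 min room-temperature incubation with compounds. Loss of polarization marks inhibitors; ADP serves as titrated control.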
# * hit, by the source's call; i = inactive; ? = inconclusive; . = no result given.
structure	Bst PK mod	TsaE inh
O=C(COC(=O)c1ccc(NS(=O)(=O)c2ccc3c(c2)OCCO3)cc1)NCC1CCCO1 (configuration not stated)	>57	i
CCS(=O)(=O)Nc1ccc(Cc2ccncc2)cc1	>11.4	i
CCc1ccc2oc(-c3cc(N)ccc3O)nc2c1	1.24*	i
CC(=O)O[C@]1(C)N=NC2(CCCCC2)O1	.	i
CCN(C1CCCCC1)S(=O)(=O)c1ccc(S(=O)(=O)NCCc2ccncc2)cc1	>57	i
COc1ccc(C2c3c(oc4ccccc4c3=O)C(=O)N2c2ccccn2)cc1 (configuration not stated)	.	i
Cc1ccc(S(=O)(=O)N2CCN(c3nc(C)c4c(c3C#N)CC(C)(C)OC4)CC2)cc1	?	.
COc1ccc(-c2cc(=O)[nH]c(=O)[nH]2)cc1	>11.4	.
Cn1cc(CN2CCc3ccccc3C2)c2ccccc21	>57	i
O=C(c1ccc(NC2=NC3CS(=O)(=O)CC3S2)cc1)N1CCN(C(=O)c2ccco2)CC1 (configuration not stated)	.	i
CCOC(=O)N1CCC(NC(=O)CSCc2nc(-c3ccc(OC)c(OC)c3)oc2C)CC1	>57	i
CCN(CC)c1cccc(OCC(=O)N(C)CCC#N)c1	>57	i
Cc1ccc(NC(=O)C2CCN(C(=O)NC3CCCCC3)CC2)cc1Cl	>57	i
O=C(NCc1cccnc1)Nc1ccc(F)cc1F	>57	i
CN(C)C(=O)[C@H]1C[C@@H]1[C@H](NC(=O)OCc1ccccc1)c1ccccc1	.	i
COc1ccc(S(=O)(=O)N2CCC(C(=O)c3ccc4c(c3)OCCO4)CC2)cc1	>57	i
CC1(C(=O)NC2CCCC2)CCC(=O)N1CCC1=CCCCC1 (configuration not stated)	>57	i
Cc1cc(=O)[nH]c(SCC(=O)Nc2nnc(CC(C)C)s2)n1	>57	i
O=C(O)COCCN1CCN([C@@H](c2ccccc2)c2ccc(Cl)cc2)CC1	.	i
CCN1CCN(Cc2ccc3c(c2)Cc2ccccc2-3)CC1	.	i
COc1ccccc1CCn1c(=O)c(-c2cc(F)cc(F)c2)nc2cncnc21	.	i
CCCNC(=O)C(Cc1ccccc1)NS(=O)(=O)c1cccc2nsnc12 (configuration not stated)	>57	i
C=CCNc1nc2c(c(=O)n(C)c(=O)n2C)n1Cc1ccc(F)cc1	.	i
CCNC(=O)CC1C(=O)N(c2ccccc2)C(=O)N1Cc1ccc(OC)cc1 (configuration not stated)	>57	i
O=C(O)c1ccc(COc2c(F)c(F)cc(F)c2F)cc1	.	i
O=C1c2cccnc2C(Nc2ccc(S(=O)(=O)N3CCCCC3)cc2)N1Cc1ccccc1 (configuration not stated)	>57	i
CCCN(CCC)C(=O)C1c2ccccc2Oc2ccccc21	.	i
O=C(NCc1cccs1)c1ccncc1	>57	i
CCC(C)C(NC(=O)OC(C)(C)C)C(=O)NCc1ccco1 (configuration not stated)	>57	i
C[C@@H]1CC[C@H]2[C@H](C)[C@H]3[C@H](C[C@H]4[C@@H]5CC=C6C[C@@H](O)CC[C@@]6(C)[C@@H]5C[C@@H](O)[C@]34C)N2C1	.	i
O=C1CC(N2CCN(c3ccccc3Cl)CC2)C(=O)N1c1cccc(F)c1 (configuration not stated)	>57	i
N#Cc1c(NC(=O)CSc2nnnn2C2CCCC2)sc2c1CCCC2	>57	i
O=C(Nc1ccc(Cl)c(Cl)c1)c1ccncc1	.	i
O=C(CC1(O)C(=O)N(Cc2ccccc2)c2ccccc21)c1ccncc1 (configuration not stated)	>57	i
O=C(Nc1ccccn1)c1cc(-n2cnnc2)ccc1Cl	>57	i
O=C(CSc1ccc2nnc(-c3ccccc3)n2n1)NCc1ccco1	>57	i
Clc1cccc(-c2nn3c(-c4ccncc4)nnc3s2)c1	>57	i
Cc1ccc(S(=O)(=O)CC(c2ccccc2)N2CCOCC2)cc1 (configuration not stated)	>57	i
CCCCc1noc2c1/C(=N\O)CC(c1ccccc1)C2 (configuration not stated)	>57	i
Cc1ccc(NC(=O)c2cccc(OCc3c(C)noc3C)c2)c(C)c1	>57	i
N#Cc1nc(Cc2cccc3ccccc23)oc1NCCCN1CCOCC1	>57	i
CCOC(=O)Cc1cc(=O)c2c(=O)n(-c3ccccc3)[nH]c2[nH]1	>57	i
O=C(c1ccc(Cl)cc1)N1CCCCC(Sc2nnc(-c3ccc4c(c3)OCO4)o2)C1=O (configuration not stated)	.	i
CSc1nc(N)nc(SCCS(=O)(=O)c2ccc(Cl)cc2)c1C#N	>57	i
O=c1[nH]c2c(s1)C(c1ccco1)C1C3CCC(C3)C1S2 (configuration not stated)	>57	i
COCCN(C(=O)c1cccc(OC)c1)c1nnc(-c2ccncc2)s1	>57	i
CC(C)C[C@@H](CC(=O)N[C@@H](CCCN)CC(=O)N[C@@H]1CCCC[C@H]1C(=O)N[C@H](CC(=O)N[C@@H](CCC(=O)O)CC(=O)O)Cc1c[nH]c2ccccc12)NC(=O)[C@@H]1CNCC[C@H]1N	.	i
O=C(NCc1ccco1)c1ccc2c(c1)C(=O)c1ccccc1-2	?	i

# Part of the list above, set out differently:
Bst PK mod	TsaE inh	compound
>57	i	CCOC(=O)Cc1cc(=O)c2c(=O)n(-c3ccccc3)[nH]c2[nH]1
.	i	O=C(c1ccc(Cl)cc1)N1CCCCC(Sc2nnc(-c3ccc4c(c3)OCO4)o2)C1=O (configuration not stated)
>57	i	CSc1nc(N)nc(SCCS(=O)(=O)c2ccc(Cl)cc2)c1C#N
>57	i	O=c1[nH]c2c(s1)C(c1ccco1)C1C3CCC(C3)C1S2 (configuration not stated)
>57	i	COCCN(C(=O)c1cccc(OC)c1)c1nnc(-c2ccncc2)s1
.	i	CC(C)C[C@@H](CC(=O)N[C@@H](CCCN)CC(=O)N[C@@H]1CCCC[C@H]1C(=O)N[C@H](CC(=O)N[C@@H](CCC(=O)O)CC(=O)O)Cc1c[nH]c2ccccc12)NC(=O)[C@@H]1CNCC[C@H]1N

# The list goes on:
structure	Bst PK mod	TsaE inh
CCOc1ccc2cc(C#N)c(SCC(=O)OC)nc2c1	.	i
O=C1c2ccccc2C(O)N1CCN1CCOCC1 (configuration not stated)	.	i
COc1ccc(C(c2nnnn2CC2CCCO2)N2CCN(c3ccc(F)cc3)CC2)cc1 (configuration not stated)	>57	i
N#Cc1nc(Cc2ccccc2)oc1NCc1cccnc1	>57	i
COc1ccc(CNc2ccnc(-c3ccc(C(=O)N(C)C)cc3)n2)c(OC)c1	.	i
O=S(N1CCCCCC1)C12CC3CC(CC(C3)C1)C2 (configuration not stated)	.	i
CC1(C)CC(=O)NC=C(c2ccccc2)C1	>57	i
Cc1cc(NC(=O)Nc2ccc3c(ccn3C)c2)sn1	.	i
CCOc1cc(/C=N/n2cnnc2)ccc1OCC(=O)Nc1ccccc1OC	.	i
CCc1ccc(NC(=O)CSc2nc3ccccc3c(=O)n2CCN2CCOCC2)cc1	>57	i
O=C(NC1CCCCC1)NC1CC2CCC(C1)N2C(=O)NC1CCCCC1 (configuration not stated)	>57	i
CC1(C)S[C@@H]2[C@@H](NC(=O)[C@@H](N)c3ccccc3)C(=O)N2[C@H]1C(=O)O	.	i
Cc1ccc(NC(=O)N(Cc2cc3cc(C)cc(C)c3[nH]c2=O)CC2COCCO2)cc1 (configuration not stated)	>57	i
CCc1ccc(N2C(=O)c3sc4nnc(C)c(=O)n4c3C2=O)cc1	.	i
O=C(Nc1cc(C(F)(F)F)ccc1N1CCOCC1)c1cccnc1	>57	i
Cc1cccc(C)c1NC(=O)CSCC(=O)O	>57	i

# Quoted at random: two entries already listed.
structure	Bst PK mod	TsaE inh
CCc1ccc(NC(=O)CSc2nc3ccccc3c(=O)n2CCN2CCOCC2)cc1	>57	i
CCc1ccc(N2C(=O)c3sc4nnc(C)c(=O)n4c3C2=O)cc1	.	i

# (next part)
structure	Bst PK mod	TsaE inh
COc1ccc(C2=NOC(C(=O)NCCN3CCOCC3)C2)cc1 (configuration not stated)	>57	i
O=c1c2c3nc4ccccc4nc3n(/N=C/c3ccco3)c2ncn1CCC1=CCCCC1	.	i
COC(=O)c1ccc(CN(Cc2ccc(C(=O)OC)o2)C(C)(C)C)o1	>57	?
O=C(c1cccs1)c1no[n+]([O-])c1C(=O)c1cccs1	>57	i
Cc1cccc(C2Nc3ccccc3C(=O)N2c2ccccc2)n1 (configuration not stated)	.	i
CCn1c(COc2ccccc2C(N)=O)nc2ccccc21	>57	i
Cc1cc(C)c2[nH]c(=O)c(C(c3nnnn3Cc3ccc4c(c3)OCO4)N3CCCC3)cc2c1 (configuration not stated)	>57	i
COc1ccc(NC(=O)C2CCN(S(=O)(=O)c3cccnc3)CC2)cc1Cl	.	i
O=C(OC1CCc2ccccc2C1=O)c1ccccc1O (configuration not stated)	>57	i
COc1ccc(OC)c(C(C(=O)NCc2ccco2)N(C(=O)Cn2nnc3ccccc32)C(C)C)c1 (configuration not stated)	>57	i
COc1cccc(NC(=O)Cc2cccs2)c1	>57	i
O=C(Nc1cccc(NC(=O)C2CC3CCCC(C2)C3=O)n1)C1CC2CCCC(C1)C2=O (configuration not stated)	>57	i
CSCCC(C(=O)O)N1C(=O)c2ccc(C(=O)O)cc2C1=O (configuration not stated)	.	i
CCOC(=O)c1sc2ncn(/N=C/c3ccccn3)c(=O)c2c1C	.	i
O=C(c1ccncc1)N1CCC[C@@]2(CCN(C(c3ccccc3)c3ccccc3)C2)C1	.	i
COc1ccc(C2(C)NC(=O)N(Cc3cc(Cl)cc4c3OCOC4)C2=O)cc1OC (configuration not stated)	>57	i
COC(=O)C1=COC(C)C2CN3CCc4c([nH]c5ccccc45)C3CC12 (configuration not stated)	.	i
CN(C)C[C@@H](O)c1ccc(Cl)c2ccccc12	.	i
Cc1cc(Oc2ccc(=O)n(C)n2)nc(Oc2ccc(=O)n(C)n2)n1	>57	i
CCn1c(SCC(=O)N2CCc3ccccc32)nnc1-c1ccncc1	>57	i
Cc1ccccc1OCCC(=O)Nc1c(C)n(C)n(-c2ccccc2)c1=O	>57	i
Cc1nn2c(-c3ccc(Cl)cc3Cl)nnc2s1	?	i
CC(C)C=O	.	i
COC(=O)c1ccccc1NC(=O)c1ccc(COc2ccccc2)o1	>57	i
CCOC(=O)C1CCCCN1C(=O)CCc1c(C)nc2ncnn2c1C (configuration not stated)	>57	i
O=C(c1cccs1)N1CCCC(c2nc(-c3ccc(F)cc3)no2)C1 (configuration not stated)	>57	i
OC(CN1C2=NCCN2c2ccccc21)c1ccc(Br)cc1 (configuration not stated)	>57	i
COc1ccc(-c2cc(C(F)(F)F)nc(N3CCN(c4ccc(F)cc4)CC3)n2)cc1OC	>57	i
C=CCN1C(=O)C2C(C(=O)NCc3ccccc3)C3C=CC2(O3)C1C(=O)NC(C)(C)C (configuration not stated)	>57	i
CS(=O)(=O)N1CCCC(C(=O)NCc2ccccc2Cl)C1 (configuration not stated)	>57	i
CC(C)(C)C(=O)Cn1c[n+](N)cn1	>57	i
CSc1nc(-c2ccccc2)nc2c1COC(C)(C)C2	>57	i
COCCn1c(=O)c(-c2cc(F)cc(F)c2)nc2cnc(Oc3ccc(OC)cc3)nc21	.	i
CNC(=O)c1ccccc1NC(=O)c1cccc(S(=O)(=O)N2CCC(C)CC2)c1	>57	i
Cc1[nH]nc2c1C(c1ccc3c(c1)OCO3)C(C#N)=C(N)O2 (configuration not stated)	>57	i
CCn1c(SCC(=O)OC2CCCCC2)nc2ccccc2c1=O	>57	i
CCOc1ccccc1NC(=O)N1CCC(c2nc3ccccc3[nH]2)CC1	>57	i
Cc1ccc(S(=O)(=O)N2CCC(C(=O)Nc3ccc4c(c3)COC4=O)CC2)cc1	>57	i
O=C(Nc1ccc(S(=O)(=O)NCCc2ccccc2)cc1)c1ccc(Br)o1	>57	i
Cc1ccc(S(=O)(=O)N2CCC(C(=O)N3CCC[C@H]3C(=O)NCc3ccco3)CC2)cc1	>57	i
O=C(CSc1nccc(=O)[nH]1)Nc1ccc(Br)c(Cl)c1	>57	i
CCCC(=O)Nc1nnc(Sc2ccc(N(C)C)cc2)s1	>57	i
O=c1ccc2cc3c([nH]c4ccc(Br)cc43)oc-2c1O	>57	i
CCOc1ccc(-c2nc(C#N)c(NCc3ccc4c(c3)OCO4)o2)cc1	.	i
COc1ccc(S(=O)(=O)N(CCc2ccccc2)CC(=O)NCCCO)cc1	>57	i
Clc1ccc(OCc2nn3c(C4CCCCC4)nnc3s2)cc1	>57	i
O=C(CSc1nc2ccccc2nc1SCC(=O)N1CCOCC1)N1CCOCC1	.	i
O=C(Nc1ccc2c(c1)OCO2)N1CCN(C/C=C/c2ccccc2)CC1	>57	i
CC(=O)C1=C(Nc2ccc(C)cc2)CC(C)(O)C(C(C)=O)C1c1ccco1 (configuration not stated)	>57	i
COc1cc(C(=O)O[C@@H]2CC(C)=CC[C@@]3(C)CC[C@](O)(C(C)C)[C@H]23)ccc1O	.	i
O=C(C1CC1)N1CCN=C1SCc1ccccc1Cl	.	i
O=c1c(CCc2ccccc2)nc2cnc(N3CCOCC3)nc2n1Cc1ccc(F)cc1	.	i
OCCN[C@@H]1c2cc(Cl)ccc2-c2c(Cl)cc(Cl)cc21	.	i
O=C1CC[C@H](NC(=O)c2ccccc2)C(=O)N1	.	i
O=C(Nc1ncccc1O)c1cccc(S(=O)(=O)N2CCc3ccccc32)c1	?	i

# Not all compounds are listed; the hit share may differ from the screen's.
